Assay outcomes from PubChem BioAssay.
AID923: qHTS Assay for Allosteric/Competitive Inhibitors of Caspase-1: Spectroscopic Profiling in AFC Spectral Region | compound fluorescence, AFC spectral region (405/520 nm); almost no hit is shown here | Potency, µM (titrated, usually from 57.5 µM), for the others: at the highest dose fluorescence increase, hits mostly activators | 1.1% of 75,000 active; active means well fitted activation curve with a large enough effect;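 further: 0% is about no effect; scaled to a free AFC standard on each plate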
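Compound autofluorescence profiled at 405 nm ex/520 nm em during kinetic caspase 1 run (50 nM enzyme, 5 uM Ac-WEHD-AFC, HEPES pH 7.5, 10 mM DTT). Titration up to 57 uM; baseline from regression intercept, normalized to AFC standard curve.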
Active calls of the source: *; [ ] = another dose, or the depositor's remark. Potency means the concentration at half of the fitted maximal effect.

SMILES,AID923
CN1C[C@@H]2C(c3ccc(C(F)(F)F)cc3)C3(c4ccc(C#N)cc4)CC2(C3)[C@H]1c1ccccc1 (stereo not given in full),-2.1%
COc1ccc(-c2coc3cc(OC4OC(CO)C(O)C(O)C4O)cc(O)c3c2=O)cc1 (stereo not given),-3.7%
CN(C)CCc1c[nH]c2ccc(CC3COC(=O)N3)cc12 (stereo not given),-0.4%
COc1cccc(C(=O)N2CCN=C2SCc2cccnc2)c1OC,-1.7%
CC1(C)CC(=O)c2c(oc3cc(O)c(O)cc23)C1,-0.9%
Nc1ncnc2[nH]c(=O)[nH]c12,-0.2%
CC1(C)CCCC2(C)C3C(O)CC2(C)C(O)C31 (stereo not given),-1.5%
COC(=O)[C@H](C)NC(=O)C/C=C\[C@@H](C)CO,-1.4%[11.5 µM]
COc1ccccc1/C=C\C(=O)O,0.1%
CCC1=C(OC(=O)N(CC)CC)N2C(=O)OC(=NCCc3c[nH]c4ccccc34)[C@]2(Cc2ccccc2)[C@H]2C1=CC[C@H]1C(=O)NC(=O)[C@H]12,0.6%
O=C(/C=C(\O)c1ccccc1)c1ccccc1O,0.1%
O=C(O)c1ccc(N2CCCCCC2)c(N2C(=O)c3ccccc3C2=O)c1,-1.0%
OC1CCC2Cc3ccccc3N=C12 (stereo not given),-2.6%
CCC1=C(OC(=O)N(CC)CC)N2C(=O)OC(=NCCc3c[nH]c4ccccc34)[C@]2(Cc2ccccc2)[C@H]2C1=CC[C@H]1C(=O)N(CC)C(=O)[C@H]12,0.6%
Nc1nc2c(ncn2C2CC(O)C(CO)O2)c(=O)[nH]1 (stereo not given),-0.3%
CC(C)(O)C1=NOC(c2ccccc2)C1 (stereo not given),2.3%
OCC1OC([S-])[C@H](O)C(O)C1O.[Au+] (stereo not given in full),-6.6%
OC(Cn1cncn1)(Cn1cncn1)c1ccc(F)cc1F,0.6%
COC(=O)[C@@H]1C[C@@H]2CC[C@@H](O)C[C@@H]2N1Cc1ccc(C(F)(F)F)cc1,1.5%
N=c1n(CCO)c2ccccc2n1CCOc1ccc(Cl)cc1Cl,0.0%
COc1ccccc1NC(=O)c1ccc(Cl)c(S(=O)(=O)N2CCOCC2)c1,-0.1%
CCOc1nc2cccc(C(=O)OC(C)OC(=O)OC3CCCCC3)c2n1Cc1ccc(-c2ccccc2-c2nn[nH]n2)cc1 (stereo not given),4.7%
CCCCCCn1c(CN2CCN(C(=O)c3ccco3)CC2)nc2c1c(=O)n(C)c(=O)n2C,7.0%
CC1(C)CC2C1CCC1(C)OC2(C)CCC1O (stereo not given),-3.5%
CC(=O)O[C@@]1(C(C)=O)CCC2C3C=C(C)C4=CC(=O)CCC4(C)C3CCC21C (stereo not given in full),0.3%

(listing goes on)
SMILES,AID923
CC(CCC(=O)O)C1CCC2C3CC(O)[C@@H]4CC(O)CC[C@]4(C)C3CC[C@@]12C (stereo not given in full),-2.8%
O=C(c1cnn2c(C(F)(F)F)cc(-c3ccccc3)nc12)N1CCOCC1,2.1%
C/C=C1\C2C=C(C)C[C@@]1(N)c1ccc(=O)[nH]c1C2,-0.6%
COc1ccc(CN(CCN(C)C)c2ncccn2)cc1,0.2%
O=c1cc(-c2cccc(O)c2)oc2ccc(O)cc12,-2.4%
CCCCCCCCCCCCCCCCCCOCC(O)CO (stereo not given),1.6%
Fc1ccc(COc2ccc(/C=N/n3cnnc3)cc2)cc1,-1.3%
CCN(CC)C(=O)CCCOc1ccc(Cl)cc1Cl,1.0%
Cc1nc(S(=O)(=O)c2ccc(Cl)cc2)c(NCc2ccccc2)o1,4.8%
O=C(Nc1ccc(S(=O)(=O)Nc2nccs2)cc1)C1CCCCC1,0.1%
O=C(O)C(S)[C@@H](S)C(=O)O (stereo not given in full),-1.6%
O=c1[nH]cnc2c1nc(Cl)n2C1OC(CO)C(O)C1O (stereo not given),-0.3%
CC1=C(/C=C/C(C)=C/C=C/C(C)=C/C=C/C=C(C)/C=C/C=C(C)/C=C/C2=C(C)C(=O)CCC2(C)C)C(C)(C)CCC1=O,3.0%
O=c1[nH]c(SCc2ccccc2Cl)nc2c1CCC2,-2.1%
COC(=O)[C@@H]1C[C@@]2(O)[C@@H](O)[C@@H](O)[C@@H](O)C[C@H]2N1Cc1ccc(N2CCOCC2)cc1,-2.1%
Cc1cccc(N2CCN(C(=O)C3CCCCC3)CC2)c1C,3.3%
CCOC(=O)N1CCC(N2C(=O)c3ccccc3C2Nc2cc(C(=O)OC)cc(C(=O)OC)c2)CC1 (stereo not given),0.2%
O=C1CC(c2ccccc2)Oc2ccccc21 (stereo not given),-1.1%
CN(C)c1ccc(O)c2c1C[C@@H]1C[C@H]3C(N(C)C)C(=O)C(C(N)=O)=C(O)[C@@]3(O)C(=O)C1=C2O (stereo not given in full),3.3%
CCC(C)(C)C(=O)O[C@@H]1C[C@@H](C)C=C2C=C[C@H](C)[C@H](CC[C@@H]3C[C@@H](O)CC(=O)O3)[C@H]21,-3.5%
S=C(c1ccc(-c2ccc(Cl)c(Cl)c2)o1)N1CCOCC1,-0.1%
CC[C@H](/C=C/[C@@H](C)[C@H]1CC[C@H]2C3CC=C4C[C@@H](O)CC[C@]4(C)C3CC[C@]12C)C(C)C (stereo not given in full),1.7%
CC(=O)OC1CC2C(C)(C)C(O)C=C[C@@]2(C)C2CC[C@@]3(C)C(c4ccoc4)OC(=O)C4OC43[C@]12C (stereo not given in full),-0.4%
Cc1nc2sc(C(c3cccs3)N3CCOCC3)c(O)n2n1 (stereo not given),1.9%
COC(=O)[C@@H]1C[C@@]2(O)[C@H](O)[C@H](O)[C@H](O)C[C@H]2N1Cc1ccc(C(C)(C)C)cc1,0.6%

Later entries
SMILES,AID923
CCC1=C2CC[C@H]3C(=O)N(C)C(=O)[C@H]3[C@H]2[C@@]2(C)C(=O)N(CC(=O)OC)C(=O)N2C1=O,-2.6%
COc1ccc(CCNC(=O)C2(C)CCC(=O)N2Cc2ccc3c(c2)OCO3)cc1OC (stereo not given),-0.9%
CN1C[C@@H]2C(c3ccc(C(F)(F)F)cc3)C3(c4cccnc4)CC2(C3)[C@H]1c1ccccc1 (stereo not given in full),2.7%
Oc1c(Cl)cc(Cl)c2cccnc12,-5.4%
CC(=O)NC(CC(=O)O)C(=O)O (stereo not given),-2.0%
O=C(Nc1cccc2ccccc12)N1CCOCC1,-1.4%
COC(=O)c1ccc(C23CC4(C2)[C@H](CN(Cc2cccnc2)[C@@H]4c2ccccc2)C3c2ccc(Cl)nc2)cc1 (stereo not given in full),-1.3%
COC(=O)c1cccc(C23CC4(C2)[C@H](CN(Cc2ccc(C(F)(F)F)cc2)[C@@H]4c2ccccc2)C3c2ccccc2)c1 (stereo not given in full),-1.5%
Cn1c(=O)[nH]c(=O)c2c1nc(CN1CCN(c3cccc(Cl)c3)CC1)n2CCCc1ccccc1,-2.1%
C=CCSCC1Nc2cc(Cl)c(S(N)(=O)=O)cc2S(=O)(=O)N1 (stereo not given),-2.5%
CCC1=C2CC[C@H]3C(=O)N(CC(=O)OC)C(=O)[C@H]3[C@H]2[C@@]2(C)C(=O)N(Cc3ccccc3)C(=O)N2C1=O,0.9%
O=C(O)c1cc(C2CC2)nc2ccccc12,-2.0%
Cn1c(=O)[nH]c2nc[nH]c2c1=O,0.1%
CCCc1cc(=O)[nH]c(SCC(=O)OCc2ccccc2)n1,2.6%
COc1cccc(NC(=O)CN(c2cccc(C(F)(F)F)c2)S(C)(=O)=O)c1,-2.4%
O=C1C2C3CCCC3=C3CCCC3C2C(=O)N1c1ccccc1 (stereo not given),2.4%
NCC1CCC(N)C(O[C@@H]2C(O)[C@H](O[C@H]3OC(CO)C(O)C(N)C3O)[C@@H](N)C[C@H]2N)O1 (stereo not given in full),-1.7%
CCC1=C(OC(=O)N(CC)CC)N2C(=O)OC(=NCC3CC3)[C@]2(Cc2ccccc2)[C@H]2C1=CC[C@H]1C(=O)NC(=O)[C@H]12,0.3%
Cc1nc2sc(C(c3cccs3)N3CCN(C(=O)c4ccco4)CC3)c(O)n2n1 (stereo not given),-4.8%
O=C1CC(c2ccc(O)c(O)c2)Oc2cc(O)cc(O)c21 (stereo not given),-2.1%
Cn1c(N)c(C(=O)COC(=O)c2cc(C3CC3)nc3ccccc23)c(=O)n(C)c1=O,3.7%
Cc1nn(Cc2ccc(Cl)c(Cl)c2)c(C)c1NC(=O)c1cc(C2CC2)on1,0.7%
CC(=O)OC1CC2C(C)(C)C=CC(=O)[C@@]2(C)C2CC[C@@]3(C)C(c4ccoc4)OC(=O)C4OC43[C@]12C (stereo not given in full),-1.3%
COC(=O)CC1C(C)(C)C(OC(C)=O)C2[C@H](OC(C)=O)[C@]34O[C@]2(O)[C@]1(C)C3CC[C@]1(C)C4=CC(=O)OC1c1ccoc1 (stereo not given in full),1.0%
CC(=O)/C(=C\c1ccccc1)CC(=O)O,1.5%

Next part:
smiles,AID923
NCCCCC(N)C(=O)NC(Cc1ccc(O)cc1)C(=O)NC(CCCCN)C(=O)O (stereo not given),-0.8%
CCC1=C(OC(=O)N(CC)CC)N2C(=O)OC(=NCC3CC3)[C@]2(Cc2ccccc2)[C@H]2C1=CC[C@H]1C(=O)N(CC(=O)OC)C(=O)[C@H]12,-2.5%
CCC1=C(OC(=O)N(CC)CC)N2C(=O)OC(=NCc3ccccc3)[C@]2(C)[C@H]2C1=CC[C@H]1C(=O)N(c3ccccc3)C(=O)[C@H]12,2.0%
O=C(OCCN1C(=O)c2ccccc2C1=O)c1cc2ccccc2o1,0.2%
CC1(C)C(=O)CC[C@@]2(C)C1CC(O)[C@@]1(C)C3=CC(=O)OC(c4ccoc4)[C@]3(C)CCC21 (stereo not given in full),0.7%
OCCN1CC(O)C(O)C(O)C1CO (stereo not given),-1.4%
O=S(=O)(/C=C/c1ccccc1)N1CCN(c2ccccc2)CC1,2.7%
CC(=O)c1cccc(NC(=O)c2ccc(Br)o2)c1,0.0%
CC(C)(O)CCC(O)[C@@](C)(O)C1CC[C@]2(O)C3=CC(=O)C4CC(O)C(O)C[C@]4(C)C3CC[C@]12C (stereo not given in full),-0.9%
NC(C(=O)NC1C(=O)N2C(C(=O)O)=C(Cl)CSC12)c1ccccc1 (stereo not given),0.1%
CCC(=O)O[C@@]1(C(=O)CCl)C(C)CC2C3CCC4=CC(=O)C=C[C@@]4(C)[C@]3(F)C(O)C[C@]21C (stereo not given in full),-0.3%
O=C(Cn1c(S(=O)(=O)Cc2ccccc2)nc2ccccc21)N1CCCCC1,1.7%
COc1ccc(Cc2nnc(-c3cccc(C)c3)o2)cc1OC,2.2%
CN(C)CC/C=C1/c2ccccc2COc2ccccc21,-0.1%
CN(C)c1nc2c(Br)c(Br)c(Br)c(Br)c2[nH]1,-7.5%

Structural class: the compounds so far containing a CF3 group.
smiles,AID923
CN1C[C@@H]2C(c3ccc(C(F)(F)F)cc3)C3(c4ccc(C#N)cc4)CC2(C3)[C@H]1c1ccccc1 (stereo not given in full),-2.1%
COC(=O)[C@@H]1C[C@@H]2CC[C@@H](O)C[C@@H]2N1Cc1ccc(C(F)(F)F)cc1,1.5%
O=C(c1cnn2c(C(F)(F)F)cc(-c3ccccc3)nc12)N1CCOCC1,2.1%
CN1C[C@@H]2C(c3ccc(C(F)(F)F)cc3)C3(c4cccnc4)CC2(C3)[C@H]1c1ccccc1 (stereo not given in full),2.7%
COC(=O)c1cccc(C23CC4(C2)[C@H](CN(Cc2ccc(C(F)(F)F)cc2)[C@@H]4c2ccccc2)C3c2ccccc2)c1 (stereo not given in full),-1.5%
COc1cccc(NC(=O)CN(c2cccc(C(F)(F)F)c2)S(C)(=O)=O)c1,-2.4%

(more compounds)
smiles,AID923
O=C1CC(c2ccccc2)CN1Cc1ccccc1 (stereo not given),-0.5%
CN1C[C@@H]2C(c3ccc(Cl)nc3)C3(c4ccccc4)CC2(C3)[C@H]1c1ccccc1 (stereo not given in full),0.2%
COc1cccc(-c2nc(CS(=O)(=O)CC(=O)N3CCc4ccccc4C3)c(C)o2)c1,-1.2%
CCOC(=O)CCC(=O)O[C@H]1C(O[C@@H]2C(C)[C@H](O[C@H]3C[C@@](C)(OC)C(O)C(C)O3)C(C)C(=O)OC(CC)[C@@](C)(O)C(O)[C@H](C)C(=O)C(C)C[C@]2(C)O)OC(C)CC1N(C)C (stereo not given in full),-0.6%
O=C(O)c1cc(S(=O)(=O)N2CCCCCC2)ccc1Cl,-1.1%
Cn1c(=O)c2c(nc(CN3CCN(Cc4ccccc4)CC3)n2Cc2cccc(Cl)c2)n(C)c1=O,-5.6%
CC1(C)C(=O)C2C[C@]3(O)C4=CC(=O)OC(c5ccoc5)[C@]4(C)CCC3[C@](C)(C2=O)C1CC(=O)O (stereo not given in full),-0.6%
COc1c(Cl)ccc(Cl)c1C(=O)OCC(=O)O,0.8%
Cc1c(C)c2c(c(C)c1O)CC[C@@](C)(CCC[C@H](C)CCC[C@H](C)CCCC(C)C)O2,-2.3%
CCOc1ccc(NC(=O)C2CC(C)=C(C)CC2C(=O)O)cc1 (stereo not given),0.0%
Clc1ccc(C2[C@H]3CN(Cc4cccnc4)[C@H](c4ccccc4)C34CC2(c2ccccc2)C4)cn1 (stereo not given in full),2.9%
COc1cc2c(cc1OC)C1C(=O)c3c(O)cc4c(c3OC1CO2)C=CC(C)(C)O4 (stereo not given),0.2%
CCC1C(C#N)=C(N)OC2=C1C(=O)CC(C)(C)C2 (stereo not given),-2.3%

Molecules listed so far containing bromine, in the order listed:
smiles,AID923
CC(=O)c1cccc(NC(=O)c2ccc(Br)o2)c1,0.0%
CN(C)c1nc2c(Br)c(Br)c(Br)c(Br)c2[nH]1,-7.5%

Some of the compounds tested; the hit share may differ from the screen's.
